# NOMO-1 viab: STK33 inhibitor candidate reducing NOMO-1 cell viability. NOMO-1 AML viability, CellTiter-Glo luminescence, 72 h. inhibition, % (no concentration beside the values). hit rate 7.5% among 37,000. AID 2330;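 active = most replicates above 80%; inconclusive = exactly half above 80%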;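 note: wells of about 30 µL received 25 nL stock; 0% = median of vehicle wells and 100% = reference inhibitor level; the first replicate is given; inactives centre near 10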
# Active calls of the source: *; ? = inconclusive.
SMILES,NOMO-1 viab
C[C@@H]1CN([C@@H](C)CO)C(=O)c2cccc(NC(=O)c3cnccn3)c2O[C@@H]1CN(C)S(=O)(=O)c1cccs1,-12
Oc1c(C(Nc2ccccn2)c2cccc(F)c2)cc(Cl)c2cccnc12 (stereo unspecified),113*
Nc1cc(N)nc(SCC(=O)c2ccc(F)cc2)n1,-8
Cc1ccc(NC(=O)CSc2nc(-c3cccs3)cc(C(F)(F)F)n2)c([N+](=O)[O-])c1,107*
Cc1ccccc1C(=O)Nc1ccc2nc(SCC(=O)Nc3ccccc3)sc2c1,25
Brc1ccc(CNc2nc3ccccc3n2CCN2CCOCC2)cc1,19
CSc1ccccc1NC(=O)C(C)NS(=O)(=O)c1ccc(Cl)cc1 (stereo unspecified),24
C=C1C(=O)O[C@@H]2CC=C(CCC(C)O)C(C)C[C@@H]12 (stereo partly specified),121*
Cc1cc(NCn2ncc3ccccc3c2=O)ccc1Br,39
C[C@@H]1CN([C@@H](C)CO)C(=O)c2cccc(NC(=O)C3CCOCC3)c2O[C@@H]1CN(C)CC1CC1,-7
Cc1c(-c2nnnn2-c2ccccc2)cnc2ccccc12,20
C[C@H](CO)N1C[C@H](C)[C@H](CN(C)Cc2ccccc2)Oc2ccc(NS(=O)(=O)c3cn(C)cn3)cc2CC1=O,27
C[C@H](CO)N1C[C@H](C)[C@H](CN(C)C)Oc2ccc(NC(=O)Cn3cnnn3)cc2CC1=O,-5
Cc1cc(C)c(S(=O)(=O)N2CCN(CC(O)COc3ccc4ccccc4c3)CC2)c(C)c1 (stereo unspecified),23
CNC(=O)CN(C)S(=O)(=O)c1ccc(OC)c(C)c1,-3
C[C@@H]1CN([C@@H](C)CO)C(=O)Cc2cc(NC(=O)CCC(F)(F)F)ccc2O[C@@H]1CN(C)S(=O)(=O)c1cn(C)cn1,13
COc1ccc(S(=O)(=O)N(C)C[C@@H]2OCCCC[C@@H](C)Oc3ccc(NC(=O)C4CCCCC4)cc3C(=O)N([C@H](C)CO)C[C@@H]2C)cc1,28
Nc1cc(N)cc(C(=O)OCN2C(=O)c3ccccc3C2=O)c1,10
C[C@@H]1CCCCO[C@H](CN(C)C(=O)c2ccncc2)[C@@H](C)CN([C@H](C)CO)C(=O)c2cc(NS(C)(=O)=O)ccc2O1,2
C[C@H]1CN([C@@H](C)CO)C(=O)c2cccc(NC(=O)c3ccc(-c4nccs4)cc3)c2O[C@@H]1CN(C)C(=O)Nc1ccc2c(c1)OCO2,13
Cc1noc(C)c1S(=O)(=O)Nc1ccc2c(c1)C(=O)N([C@@H](C)CO)C[C@@H](C)[C@H](CN(C)C(=O)Nc1ccc(F)cc1)O2,13
C[C@@H]1CN([C@H](C)CO)C(=O)c2cc(NS(=O)(=O)c3cccs3)ccc2O[C@H]1CN(C)S(=O)(=O)c1cccs1,4
C[C@@H]1CN([C@@H](C)CO)C(=O)c2cc(NC(=O)c3ccncc3)ccc2O[C@@H]1CN(C)S(=O)(=O)c1cccs1,7
Cc1coc(C)c1C(=O)CC1(O)C(=O)Nc2ccc(Br)cc21 (stereo unspecified),15

# Copied from the listing, 11 compounds:
SMILES,NOMO-1 viab
C[C@H](CO)N1C[C@H](C)[C@H](CN(C)Cc2ccccc2)Oc2ccc(NS(=O)(=O)c3cn(C)cn3)cc2CC1=O,27
C[C@H](CO)N1C[C@H](C)[C@H](CN(C)C)Oc2ccc(NC(=O)Cn3cnnn3)cc2CC1=O,-5
Cc1cc(C)c(S(=O)(=O)N2CCN(CC(O)COc3ccc4ccccc4c3)CC2)c(C)c1 (stereo unspecified),23
CNC(=O)CN(C)S(=O)(=O)c1ccc(OC)c(C)c1,-3
C[C@@H]1CN([C@@H](C)CO)C(=O)Cc2cc(NC(=O)CCC(F)(F)F)ccc2O[C@@H]1CN(C)S(=O)(=O)c1cn(C)cn1,13
COc1ccc(S(=O)(=O)N(C)C[C@@H]2OCCCC[C@@H](C)Oc3ccc(NC(=O)C4CCCCC4)cc3C(=O)N([C@H](C)CO)C[C@@H]2C)cc1,28
Nc1cc(N)cc(C(=O)OCN2C(=O)c3ccccc3C2=O)c1,10
C[C@@H]1CCCCO[C@H](CN(C)C(=O)c2ccncc2)[C@@H](C)CN([C@H](C)CO)C(=O)c2cc(NS(C)(=O)=O)ccc2O1,2
C[C@H]1CN([C@@H](C)CO)C(=O)c2cccc(NC(=O)c3ccc(-c4nccs4)cc3)c2O[C@@H]1CN(C)C(=O)Nc1ccc2c(c1)OCO2,13
Cc1noc(C)c1S(=O)(=O)Nc1ccc2c(c1)C(=O)N([C@@H](C)CO)C[C@@H](C)[C@H](CN(C)C(=O)Nc1ccc(F)cc1)O2,13
C[C@@H]1CN([C@H](C)CO)C(=O)c2cc(NS(=O)(=O)c3cccs3)ccc2O[C@H]1CN(C)S(=O)(=O)c1cccs1,4

# Following part
SMILES,NOMO-1 viab
C[C@@H]1CN([C@H](C)CO)C(=O)Cc2cc(NC(=O)Nc3ccccc3)ccc2O[C@@H]1CN(C)S(C)(=O)=O,3
OCc1noc(-c2ccc(Cl)c(Cl)c2)n1,-3
O[C@H]1[C@H]2c3cc4c(cc3CN3CCC(=C[C@@H]1O)[C@H]23)OCO4,142*
C[C@H](CO)N1C[C@H](C)[C@@H](CN(C)C(=O)Nc2ccc(C(F)(F)F)cc2)Oc2c(NC(=O)C3CCOCC3)cccc2C1=O,-16
C[C@@H]1CN([C@H](C)CO)C(=O)c2cc(NC(=O)Nc3ccc(F)cc3)ccc2O[C@@H]1CN(C)Cc1ccc(C(=O)Nc2ccccc2N)cc1,107*
COc1ccc(CN(C)C[C@@H]2Oc3ccc(NS(=O)(=O)c4ccc(C)cc4)cc3CC(=O)N([C@H](C)CO)C[C@@H]2C)cc1,38
Cc1noc(C)c1S(=O)(=O)Nc1ccc2c(c1)CC(=O)N([C@H](C)CO)C[C@@H](C)[C@H](CN(C)Cc1ccc(C(F)(F)F)cc1)O2,19
C[C@H](CO)N1C[C@H](C)[C@H](CN(C)S(=O)(=O)c2cn(C)cn2)Oc2c(NC(=O)Nc3cccc4ccccc34)cccc2C1=O,0
O=C(CSc1nc2ccccc2[nH]1)Nc1ccc(Br)cc1F,?
C[C@H]1CN([C@@H](C)CO)C(=O)c2cc(NC(=O)c3ccncc3)ccc2O[C@H]1CN(C)S(C)(=O)=O,-6
CC(C)[C@@H]1CC[C@@H](C)C[C@H]1OC(=O)c1ccccc1,19
COc1cccc2c1N(C(C)=O)C1CC(C)CCC1C2(C)C (stereo unspecified),?
COc1ccc(CN(C)C[C@@H]2Oc3c(NS(=O)(=O)c4ccc(Cl)cc4)cccc3C(=O)N([C@@H](C)CO)C[C@@H]2C)cc1,8
C[C@@H]1CN([C@@H](C)CO)C(=O)c2cccc(NS(=O)(=O)c3ccc(F)cc3)c2O[C@@H]1CN(C)S(=O)(=O)c1ccccc1,63
C[C@@H]1CN([C@H](C)CO)C(=O)c2cccc(NC(=O)C3CC3)c2O[C@H]1CN(C)Cc1ccc(Oc2ccccc2)cc1,65
C[C@H](CO)N1C[C@H](C)[C@H](CN(C)Cc2ccc(C(=O)Nc3ccccc3N)cc2)Oc2c(NC(=O)Nc3ccc4c(c3)OCO4)cccc2C1=O,?
Cc1cc(C)nc(SC(C)C(=O)Nc2cccc3ccccc23)n1 (stereo unspecified),-10
C[C@H]1CN([C@@H](C)CO)C(=O)Cc2cc(NC(=O)C3CC3)ccc2O[C@H]1CN(C)S(C)(=O)=O,9
Cc1cc(Cl)ccc1N(CC(=O)Nc1cc(Cl)cc(Cl)c1)S(C)(=O)=O,90*
CNS(=O)(=O)c1cc(-c2nnc(Nc3cccc(O)c3)c3ccccc23)ccc1C,18
COc1ccc(S(=O)(=O)Nc2ccc3c(c2)C(=O)N([C@H](C)CO)C[C@H](C)[C@H](CN(C)S(=O)(=O)c2ccccc2)OCCCC[C@@H](C)O3)cc1,53
CC(Sc1ncnc2sc3c(c12)CCCC3)C(=O)Nc1ccc(Br)cc1 (stereo unspecified),22
C[C@H]1CN([C@@H](C)CO)C(=O)Cc2cc(NC(=O)CCN3CCOCC3)ccc2O[C@H]1CN(C)C(=O)Nc1ccccc1,4
CC(=O)c1cccc(NC(=O)Cn2ccc([N+](=O)[O-])n2)c1,12
C[C@@H]1CCCCO[C@H](CN(C)CC2CCCCC2)[C@@H](C)CN([C@H](C)CO)C(=O)c2cc(NC(=O)Nc3ccc4c(c3)OCO4)ccc2O1,23
C[C@@H]1CCCCO[C@@H](CN(C)C(=O)Nc2ccc(F)cc2)[C@@H](C)CN([C@H](C)CO)C(=O)c2cc(NS(=O)(=O)c3ccccc3)ccc2O1,36
C[C@H]1CN([C@@H](C)CO)C(=O)Cc2cc(NC(=O)CCN3CCOCC3)ccc2O[C@@H]1CN(C)S(=O)(=O)c1cn(C)cn1,-8
CC(C)NC(=O)N(C)C[C@@H]1Oc2c(NS(=O)(=O)c3ccc(Cl)cc3)cccc2C(=O)N([C@@H](C)CO)C[C@@H]1C,-15
CS(=O)(=O)N(CC(=O)Nc1cc(Cl)ccc1Oc1ccccc1)C1CCCCC1,20
C[C@@H]1CN([C@H](C)CO)C(=O)c2cccc(NS(=O)(=O)c3ccc(Cl)cc3)c2O[C@@H]1CN(C)S(=O)(=O)c1ccccc1,35
C[C@@H]1CN([C@H](C)CO)C(=O)c2cc(N(C)C)ccc2O[C@H]1CN(C)Cc1ccc2c(c1)OCO2,14
C[C@@H]1CN([C@H](C)CO)C(=O)c2cccc(NC(=O)Nc3ccccc3)c2O[C@H]1CN(C)Cc1ccc(Oc2ccccc2)cc1,23
CNC[C@@H]1Oc2c(NS(=O)(=O)c3ccc(Cl)cc3)cccc2C(=O)N([C@@H](C)CO)C[C@H]1C,-3
O=C(CSc1nnc(-c2ccccc2)n1-c1ccccc1)Nc1ccccc1F,30
C[C@H](CO)N1C[C@H](C)[C@H](CN(C)C(=O)NC2CCCCC2)Oc2c(NC(=O)c3ccncc3)cccc2C1=O,-2
CC(C)NC(=O)Nc1ccc2c(c1)CC(=O)N([C@H](C)CO)C[C@@H](C)[C@H](CN(C)S(=O)(=O)c1ccc(Cl)cc1)O2,5
C[C@H]1CN([C@@H](C)CO)C(=O)Cc2cc(NC(=O)Nc3ccc4c(c3)OCO4)ccc2O[C@H]1CN(C)C(=O)Nc1ccc(C(F)(F)F)cc1,-6
O=C(CN1C(=O)c2ccccc2C1=O)Nc1ccc(-c2nc3ccccc3o2)cc1,-18
COc1ccc(NC(=O)N(C)C[C@@H]2Oc3ccc(NS(C)(=O)=O)cc3CC(=O)N([C@H](C)CO)C[C@@H]2C)cc1,2
C[C@@H]1CN([C@@H](C)CO)C(=O)Cc2cc(NC(=O)Nc3ccccc3)ccc2O[C@@H]1CN(C)C(=O)Nc1ccc(F)cc1,12
CC(C)NC(=O)Nc1cccc2c1O[C@H](CN(C)Cc1ccc(C(=O)O)cc1)[C@H](C)CN([C@H](C)CO)C2=O,10
COc1ccc(CN(C)C[C@H]2Oc3ccc(NC(=O)c4ccncc4)cc3CC(=O)N([C@@H](C)CO)C[C@@H]2C)cc1,27
C[C@H](CO)N1C[C@H](C)[C@@H](CN(C)C(=O)Nc2ccc(C(F)(F)F)cc2)Oc2ccc(NC(=O)Nc3ccc(F)cc3)cc2C1=O,19
COc1ccc(NC(=O)N(C)C[C@@H]2OCCCC[C@@H](C)Oc3ccc(NS(=O)(=O)c4ccc(Cl)cc4)cc3C(=O)N([C@H](C)CO)C[C@@H]2C)cc1,64
COc1ccc(NC(=O)N(C)C[C@H]2Oc3c(NS(=O)(=O)c4cn(C)cn4)cccc3C(=O)N([C@H](C)CO)C[C@H]2C)cc1,29
CNC[C@@H]1Oc2c(NC(=O)c3nc4ccccc4s3)cccc2C(=O)N([C@H](C)CO)C[C@@H]1C,0
COc1ccc(S(=O)(=O)N(C)C[C@H]2Oc3ccc(NS(C)(=O)=O)cc3C(=O)N([C@H](C)CO)C[C@@H]2C)cc1,-7
Cn1cnnc1SCC(=O)c1ccc([N+](=O)[O-])cc1,-8
C[C@H]1CN([C@@H](C)CO)C(=O)Cc2cc(N(C)C)ccc2O[C@H]1CN(C)S(=O)(=O)c1ccccc1,3
COc1ccccc1C1CCN(S(=O)(=O)c2ccccc2Br)CC1,-4
C[C@@H]1CN([C@H](C)CO)C(=O)Cc2cc(NC(=O)CCN3CCOCC3)ccc2O[C@@H]1CN(C)Cc1ccc(C(=O)O)cc1,-6
C[C@@H]1CN([C@@H](C)CO)C(=O)c2cc(NC(=O)C3CC3)ccc2O[C@H]1CN(C)CC1CCCCC1,10
C[C@@H]1CCCCO[C@@H](CN(C)S(=O)(=O)c2ccc(F)cc2)[C@@H](C)CN([C@H](C)CO)C(=O)c2cc(NC(=O)Nc3ccc(F)cc3)ccc2O1,69
Cc1noc(C)c1S(=O)(=O)N(C)C[C@@H]1Oc2ccc(NC(=O)NC(C)C)cc2CC(=O)N([C@H](C)CO)C[C@H]1C,11
COC(=O)c1sc2ncn(CC(=O)Nc3ccccc3OC)c(=O)c2c1C,28
O=[N+]([O-])c1ccccc1S(=O)(=O)Nc1nccs1,31
O=C(Nc1ccc(C(=O)OCc2cccc(C(=O)c3ccccc3)c2)cc1)c1ccccc1,8
COc1ccc(NC(=O)Nc2ccc3c(c2)CC(=O)N([C@H](C)CO)C[C@@H](C)[C@H](CN(C)C(=O)NC2CCCCC2)O3)cc1,19
C[C@H](CO)N1C[C@H](C)[C@H](CN(C)CC2CC2)Oc2c(NS(=O)(=O)c3ccc(F)cc3)cccc2C1=O,-6
CSc1sc(Cl)c2c1/C(=N\O)CC(C)(C)C2,110*
# Remaining list, next part.
SMILES,NOMO-1 viab
CC(C)C1Cc2c(sc3nc(SCC(=O)Nc4ccc(Cl)cc4Cl)nc(N)c23)CO1 (stereo unspecified),38
O=C(CSc1nnnn1-c1ccccc1)N1c2ccccc2CCc2ccccc21,55
COc1ccc(NC(=O)CSc2c(C)nn(-c3nnc(C)c(=O)[nH]3)c2C)cc1,-10
O=C(CN1C(=O)c2ccccc2S1(=O)=O)Nc1ccc(Br)cc1F,-3
C[C@@H]1CCCCO[C@@H](CN(C)C(=O)Nc2cccc3ccccc23)[C@@H](C)CN([C@H](C)CO)C(=O)c2cc(NC(=O)Cc3ccccc3)ccc2O1,72
C[C@@H]1CN([C@@H](C)CO)C(=O)Cc2cc(NC(=O)c3ccncc3)ccc2O[C@@H]1CN(C)C(=O)Nc1ccc2c(c1)OCO2,-4
C[C@@H]1CN([C@@H](C)CO)C(=O)c2cccc(NC(=O)c3nc4ccccc4s3)c2O[C@@H]1CN(C)S(=O)(=O)c1ccc(F)cc1,52

# Screening data (PubChem BioAssay)

# This is a subset (hit frequency here may not be typical).
